Six1-Eya2 inh: qHTS Assay for Inhibitors of the Six1/Eya2 Interaction; Homeobox protein SIX1 (Homo sapiens) + Protein phosphatase EYA2 (Homo sapiens), …; AlphaScreen GST-Six1/His-Eya2 binding, biochemical; active compounds read low; control for the full effect not named in the record; activity change, % (no concentration beside the values); 360,000 tested, 0.56% active; AID 651725, 2012; in the data active = activity change below about -65%; inconclusive = about -30% to -65%; inactive = above about -30%; note: % is set by controls: 0 for no effect and ±100 for the full control effect
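Compounds are tested against tagged Six1 and Eya2 proteins bridged by glutathione donor and nickel acceptor beads; after a one-hour incubation at 37 °C without light, AlphaScreen emission is recorded.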
TRPML1 ag: qHTS for Agonists of the Human Mucolipin Transient Receptor Potential 1 (TRPML1); TRPML1-expressing cells, Ca2+ dye fluorescence, FDSS; host cell line not named in the record; reference of the full effect not given here; activation, % (no concentration beside the values); 410,000 tested, 0.12% active; in the data active = activation above about 50%; inconclusive = about 30% to 50%; inactive = below about 30%; note: 0% is about no effect; the text of the record puts the active cut at 80%
Target sequence (Q9GZU1 whole entry, looked up): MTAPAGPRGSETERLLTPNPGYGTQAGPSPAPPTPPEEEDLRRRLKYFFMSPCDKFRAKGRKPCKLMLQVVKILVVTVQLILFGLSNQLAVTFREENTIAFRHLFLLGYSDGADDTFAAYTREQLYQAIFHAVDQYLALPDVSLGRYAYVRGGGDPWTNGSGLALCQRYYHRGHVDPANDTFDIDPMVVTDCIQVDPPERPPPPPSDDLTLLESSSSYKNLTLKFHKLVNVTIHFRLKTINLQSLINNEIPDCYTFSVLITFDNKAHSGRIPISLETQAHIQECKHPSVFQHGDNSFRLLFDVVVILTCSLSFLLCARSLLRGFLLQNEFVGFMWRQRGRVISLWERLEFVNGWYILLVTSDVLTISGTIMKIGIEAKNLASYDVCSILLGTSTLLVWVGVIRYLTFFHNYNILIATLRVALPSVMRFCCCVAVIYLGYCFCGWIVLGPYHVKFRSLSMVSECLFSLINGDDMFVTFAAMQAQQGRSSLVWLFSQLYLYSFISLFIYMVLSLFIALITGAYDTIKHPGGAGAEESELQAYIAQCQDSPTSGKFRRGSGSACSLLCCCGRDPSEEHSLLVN
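Tet-induced TRPML1-DL cells, 1,500 per well, cultured overnight, were loaded with a no-wash Ca2+ dye for 45–90 min. Calcium fluorescence was recorded on the FDSS for 110 s after compound addition, before the EC80 agonist (4 uM 54-4) was added.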
PINK1 expr mod: A Quantitative High throughput Screen to Identify Chemical Modulators of PINK1 Expression. Potency, µM (series often up to 76.6 µM), for the others: at the top dose activation (PINK1 increase), usual class: activators. PINK1 immunofluorescence, high-content cytometry, 24 h. 410,000 tested, 0.2% active; active = well fitted activation curve with a large enough effect; inconclusive = small, poorly fitted or top-dose-only effect; inactive = flat fitted curve, though single readings scatter; cell line not stated here;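 note: potency is the fitted concentration of half-maximal effect; % of control where 0% means no effect; nearly all actives have a fitted effect of over 65% in size; a mitochondrial uncoupler was the plate control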
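PINK1 protein, normally rapidly degraded, was detected by immunofluorescence after 24 hour compound treatment of a stable cell line. Titration data (5 concentrations) came from laser-scanning cytometry, with CCCP-treated wells as controls.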
D2 agonist: Beta-Arrestin HTS for Positive Allosteric Modulators of the Human D2 Dopamine Receptor: Agonists. activation, % (concentration not given with the values). 360,000 tested, 0.084% active. AID 624465, 2012. DiscoveRx PathHunter D2 beta-arrestin, luminescence, 90 min; 100% = 57 uM dopamine signal; in the data active = activation above about 40%; inconclusive = about 15% to 40%; inactive = below about 15%; note: compound concentration not given in the record; the text of the record calls up to 30% inactive
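DiscoveRx PathHunter D2 beta-arrestin cells (2,100/well) attached overnight, then compound-stimulated 90 min at 37 C in HBSS/10 mM HEPES/0.1% Tween-20 buffer; beta-galactosidase complementation read by luminescence after 1 h at ambient temperature. Dopamine 57 uM final (EC100) as control.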
TRPML1 blocker: qHTS for Inhibitors of the Human Mucolipin Transient Receptor Potential 1 (TRPML1); Mucolipin-1 (Homo sapiens), Q9GZU1; TRPML1-inducible cells, Ca2+ dye fluorescence, FDSS; active compounds read low; inhibition of EC80 agonist-evoked calcium signal; activity change, negative = inhibition, % (test concentration not listed); 390,000 tested, 0.02% active; AID 624415, 2012; in the data active means activity change below about -50%; inconclusive means about -30% to -50%; inactive means above about -30%;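 note: stimulus is agonist 54-4 at its EC80 concentration; % is set by controls: 0 for no effect and ±100 for the full control effect; compound concentration not given in the record; the text of the record puts the active cut at -80%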
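Calcium fluorescence in TRPML1-DL cells induced overnight with Tet: a 110 s read after compound pin addition, then a 110 s antagonist read after challenge with 54-4 at 4 uM final (EC80).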
D2 potentiator: Beta-Arrestin HTS for Positive Allosteric Modulators of the Human D2 Dopamine Receptor: Potentiators | DiscoveRx D2 beta-arrestin cells, luminescence, 90 min; 100% = 57 uM dopamine signal | potentiation, % (concentration not given with the values) | D(2) dopamine receptor (Homo sapiens), P14416 | 360,000 tested, 0.23% active; active = potentiation of 50% or more; inconclusive = 30% to 50%; inactive = 30% or less;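 note: compound concentration not given in the record; tested on top of an EC20 dose of dopamine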
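PathHunter D2 cells, attached overnight at 37 deg C, received compound in DMSO plus dopamine at EC20 (50 nM final) for 90 min at 37 deg C. Beta-arrestin recruitment was read as luminescence after 1 h with detection reagent at ambient temperature.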
Active calls of the source: *; / = not tested or not shown.

SMILES | Six1-Eya2 inh | TRPML1 ag | PINK1 expr mod | D2 agonist | TRPML1 blocker | D2 potentiator
COc1ccc(-c2nc(CN3C(=O)CN=C(c4ccccc4)c4cc(Cl)ccc43)c(C)o2)cc1 | / | -0.2 | 0.6% | / | 53.2 | /
C=CCn1c(C)c(C=C2C(=O)NC(=O)NC2=O)c2ccccc21 | -5.2 | 0.4 | -1.8% | 0.8 | 7.4 | -19.1
C=CCCC[C@@H]1OC(=O)CNC(=O)C([C@@H](C)CC)NC(=O)[C@@H]2CCCN2C(=O)C([C@@H](C)CC)OC(=O)[C@H](Cc2ccccc2)N(C)C(=O)[C@H](C(C)C)NC(=O)C1(C)C (stereo not given in full) | 0.9 | 23.7 | 5.9% | -4.6 | / | -6.3
COC(=O)C1=C(c2ccc(F)cc2F)C[C@@H]2CC[C@H]1N2C(=O)NCCCOC(C)C | -11.4 | -0.4 | 4.6% | -3.2 | -4.4 | -0.2
Cc1c(C(=O)O)cccc1-n1c(C)cc(/C=C2\C(=O)NC(=O)N(c3ccc4c(c3)OCO4)C2=O)c1C | -26.3 | 0.2 | 0.0% | 2.0 | 32.6 | -4.0
CCn1c(O)c(/C=N/N2CCOCC2)c(=O)n(CC)c1=S | -1.8 | 3.4 | -2.0% | -1.6 | 17.1 | -2.7
Cc1ccccc1N1C(=O)CC(=O)N(c2ccccc2C)C1=O | 1.1 | 0.9 | -0.4% | 0.0 | -4.1 | -3.0
Cc1cc2ccccc2c(=O)n1CC(=O)NCC(=O)N1CCC2(CC1)OCCO2 | 6.4 | -1.1 | -0.7% | -7.8 | 2.0 | -1.3
COc1ccc(C(=O)C2CCCN(CCc3ccccc3)C2)cc1OC (stereo not given) | -12.8 | 0.0 | 2.0% | -3.6 | 11.7 | -11.4
COC(=O)C1=CO[C@@H](C)[C@@H]2CN3CC[C@]4(C(=O)Nc5ccccc54)[C@@H]3C[C@H]12 | 0.4 | 0.5 | 1.2% | -4.0 | 5.4 | -9.2
CN1CC(C#N)C2(O)c3ccccc3CCC2C1 (stereo not given) | -14.1 | 0.3 | 1.9% | -4.6 | 1.8 | -6.6
CC1(c2ccc(Cl)cc2Cl)OCC(Cn2cncn2)O1 (stereo not given) | 9.5 | 2.6 | -1.9% | 2.0 | -3.3 | -5.2

Single records (already shown). Screens in order: Six1-Eya2 inh, TRPML1 ag, PINK1 expr mod, D2 agonist, TRPML1 blocker, D2 potentiator
Entry for Cc1ccccc1N1C(=O)CC(=O)N(c2ccccc2C)C1=O : 1.1, 0.9, -0.4%, 0.0, -4.1, -3.0
Entry for Cc1cc2ccccc2c(=O)n1CC(=O)NCC(=O)N1CCC2(CC1)OCCO2 : 6.4, -1.1, -0.7%, -7.8, 2.0, -1.3

Just D2 potentiator and TRPML1 blocker, for three of the compounds above:
| Structure | D2 potentiator | TRPML1 blocker |
| --- | --- | --- |
| C=CCCC[C@@H]1OC(=O)CNC(=O)C([C@@H](C)CC)NC(=O)[C@@H]2CCCN2C(=O)C([C@@H](C)CC)OC(=O)[C@H](Cc2ccccc2)N(C)C(=O)[C@H](C(C)C)NC(=O)C1(C)C (stereo not given in full) | -6.3 | / |
| CC1(c2ccc(Cl)cc2Cl)OCC(Cn2cncn2)O1 (stereo not given) | -5.2 | -3.3 |
| CN1CC(C#N)C2(O)c3ccccc3CCC2C1 (stereo not given) | -6.6 | 1.8 |

3 compounds out of the list, ordered by number of heavy atoms, low to high.
SMILES | Six1-Eya2 inh | TRPML1 ag | PINK1 expr mod | D2 agonist | TRPML1 blocker | D2 potentiator
CC1(c2ccc(Cl)cc2Cl)OCC(Cn2cncn2)O1 (stereo not given) | 9.5 | 2.6 | -1.9% | 2.0 | -3.3 | -5.2
COc1ccc(C(=O)C2CCCN(CCc3ccccc3)C2)cc1OC (stereo not given) | -12.8 | 0.0 | 2.0% | -3.6 | 11.7 | -11.4
COC(=O)C1=CO[C@@H](C)[C@@H]2CN3CC[C@]4(C(=O)Nc5ccccc54)[C@@H]3C[C@H]12 | 0.4 | 0.5 | 1.2% | -4.0 | 5.4 | -9.2

The list is partial; count on the stated rates, not on these rows.
